From PubChem BioAssay
Mtb MbtI inh = blocks the Mycobacterium tuberculosis siderophore enzyme MbtI | AID 493033 | P9WFX0 | purified MbtI enzyme, fluorescence intensity read-out | inhibition, %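 (about 17 µg/mL by stock and volumes)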 | hit rate 0.89% among 100,000;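 active = above 50% in both replicates, above 80% if mildly self-fluorescent; inactive = the rest, strongly fluorescent compounds included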;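 also: 0% = mean of negative and 100% = mean of positive controls; one replicate is shown; some compounds called inactive have numbers as strong as hits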
Target sequence (P9WFX0 whole entry, looked up): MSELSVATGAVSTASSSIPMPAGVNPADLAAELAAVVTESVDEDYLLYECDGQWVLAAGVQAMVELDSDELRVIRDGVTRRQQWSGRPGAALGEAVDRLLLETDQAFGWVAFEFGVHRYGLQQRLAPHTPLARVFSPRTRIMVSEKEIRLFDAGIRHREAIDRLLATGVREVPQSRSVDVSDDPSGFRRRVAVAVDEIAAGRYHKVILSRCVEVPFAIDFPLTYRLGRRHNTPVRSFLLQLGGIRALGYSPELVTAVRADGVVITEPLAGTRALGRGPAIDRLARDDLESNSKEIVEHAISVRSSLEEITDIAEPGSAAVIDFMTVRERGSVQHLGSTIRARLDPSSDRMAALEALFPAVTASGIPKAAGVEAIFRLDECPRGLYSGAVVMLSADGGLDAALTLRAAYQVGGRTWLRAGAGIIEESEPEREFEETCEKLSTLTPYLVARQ
Mtb MenB inh = Mtb MenB enzyme inhibition | MenB enzyme assay, absorbance read-out; some hits fall short of the stated cut | inhibition, %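 (about 12 µg/mL by stock and volumes)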 | hit rate 0.43% among 100,000;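 active = mean of two replicates above 30%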;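 also: 0% = no compound and 100% = wells with inactive enzyme; the first replicate is given; strong numbers were not always called active; inactives centre near -10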
Polio RdRp inh = inhibitors of poliovirus RNA polymerase binding and polymerization; P03300; poliovirus polymerase elongation, fluorescence polarization; hits give low values; % elongation, % (compound at 16.7 µg/mL); hit rate 0.66% among 150,000; AID 588519; in the data active = % elongation below about 90%; also: some results filed as inactive read as strong as hits
Target sequence (P03300 1749-2209 limits assumed): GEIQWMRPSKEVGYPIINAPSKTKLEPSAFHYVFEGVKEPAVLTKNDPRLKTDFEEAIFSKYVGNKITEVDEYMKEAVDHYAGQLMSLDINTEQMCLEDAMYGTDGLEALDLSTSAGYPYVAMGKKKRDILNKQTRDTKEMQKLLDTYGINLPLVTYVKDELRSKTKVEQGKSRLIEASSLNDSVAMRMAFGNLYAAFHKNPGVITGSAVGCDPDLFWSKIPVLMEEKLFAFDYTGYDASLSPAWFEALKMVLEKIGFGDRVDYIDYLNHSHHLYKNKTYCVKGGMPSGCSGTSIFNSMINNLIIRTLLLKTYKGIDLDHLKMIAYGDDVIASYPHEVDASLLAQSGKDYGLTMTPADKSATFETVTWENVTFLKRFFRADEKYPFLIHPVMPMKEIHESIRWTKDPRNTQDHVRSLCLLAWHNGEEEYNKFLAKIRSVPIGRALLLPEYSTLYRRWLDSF
Polio RdRp inh intensity = also measured in Polio RdRp inh; calls as there; % elongation; measured here: total intensity read-out; formula for this scale not given here;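 total fluorescence in place of polarization; lower means less elongation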
* marks the source's active call; other numbers are inactive results; nt = no result given.

Start of the data: the first four entries, to show the layout:
Every second line gives: Mtb MbtI inh | Mtb MenB inh | Polio RdRp inh | Polio RdRp inh intensity
CC1SC(c2ccccc2)N(Cc2ccccc2)C1=O (configuration not stated)
 : -15.8 | -20.4 | 102.0 | 101.0
Cc1cc(C(=O)OCC(=O)N2C(C)CCCC2C)c2ccccc2n1 (configuration not stated)
 : -6.2 | nt | 101.0 | 107.0
c1ccc(CNC2=NCCC2)nc1
 : 2.9 | -42.5 | 100.0 | 106.0
CCCS(=O)(=O)c1csc(C(=O)OC)c1NNC(=O)C(C)C
 : 11.2 | -1.8 | 104.0 | 99.0

The list itself, repeating the preview:
Every second line gives: Mtb MbtI inh | Mtb MenB inh | Polio RdRp inh | Polio RdRp inh intensity
CC1SC(c2ccccc2)N(Cc2ccccc2)C1=O (configuration not stated)
 : -15.8 | -20.4 | 102.0 | 101.0
Cc1cc(C(=O)OCC(=O)N2C(C)CCCC2C)c2ccccc2n1 (configuration not stated)
 : -6.2 | nt | 101.0 | 107.0
c1ccc(CNC2=NCCC2)nc1
 : 2.9 | -42.5 | 100.0 | 106.0
CCCS(=O)(=O)c1csc(C(=O)OC)c1NNC(=O)C(C)C
 : 11.2 | -1.8 | 104.0 | 99.0
COc1cccc(CN2CCN(Cc3ccccc3)CC2)c1
 : -6.8 | -5.5 | 99.0 | 103.0
Nc1nc(SCC(=O)NCCc2ccccc2)n[nH]1
 : 3.0 | -12.6 | 98.0 | 95.0
NC(=S)N/N=C/c1ccccc1OCC(=O)O
 : 12.7 | -2.7 | 101.0 | 100.0
O=C(Sc1ccc(Cl)cc1)c1cnn(-c2ccccc2)c1C(F)(F)F
 : 53.7* | -21.4 | 105.0 | 101.0
CC(=O)NC(C(=O)N1CCN(S(=O)(=O)c2cccs2)CC1)C(C)C (configuration not stated)
 : -8.5 | -30.2 | 102.0 | 94.0
CCC(C)(C)NC(=O)CCn1ccc(C)n1
 : -5.1 | 9.4 | 99.0 | 101.0
NC(=O)N1C(=O)C=CC1=O
 : 81.4 | -1.6 | nt | nt
N#CCCN(Cc1ccco1)S(=O)(=O)c1ccccc1
 : -20.4 | 1.0 | 100.0 | 103.0
CCc1nc(SCC(=O)NCc2ccccc2)c2c(=O)n(C)c(=O)n(C)c2n1
 : -8.5 | -26.4 | 103.0 | 105.0
NC(=O)c1ncn([C@@H]2O[C@H](CO)[C@H](O)C2O)n1 (some centres not stated)
 : -12.6 | -0.3 | 100.0 | 104.0
CCCNC(=O)c1cc2sc(Cl)cc2n1CC
 : 5.3 | 2.6 | 99.0 | 102.0
Oc1ccccc1N=Cc1ccncc1
 : nt | 5.4 | 115.0 | 128.0
O=C(CSc1nc2ccccc2o1)NN=C1CCCC1
 : -0.1 | -29.8 | 106.0 | 100.0
Cc1noc(C)c1CN(C(=S)Nc1cccc(Cl)c1)c1ccccc1
 : 16.8 | -2.7 | nt | nt
CC(N=C1SCCN1C(=O)c1ccc(NC(N)=O)cc1)c1ccccc1 (configuration not stated)
 : -2.7 | -10.0 | 94.0 | 96.0
CCCCNc1nc(=S)nc(N(C)C)[nH]1
 : -9.3 | 9.0 | 100.0 | 102.0
COC(=O)c1sccc1NC(=O)c1cc(S(=O)(=O)N(C)C)oc1C
 : 5.0 | 4.5 | 103.0 | 102.0
C/C=C/C=N/N=C/C1=C(N2CCOCC2)C(=C\c2ccccc2)/CC1
 : 1.2 | -40.5 | 101.0 | 99.0
N#CC(C#N)=c1ccc(=C(C#N)c2ccc(N3CCCC3)cc2)cc1
 : 1.9 | 3.8 | 101.0 | 99.0
CC(=O)Nc1ccc(S(=O)(=O)NCc2nc(-c3ccccc3)no2)cc1
 : -9.2 | 5.4 | 104.0 | 102.0
CCCc1ccc(-c2cc(N)n(-c3ccccc3)n2)cc1
 : -29.8 | nt | 101.0 | 107.0
CC(=O)N1C/C(=N/NC(N)=S)c2cc(Br)ccc21
 : 19.5 | -16.1 | 101.0 | 101.0
Cc1nc2ccc(NC(=O)C3=NN(C)C(=O)CC3)cc2s1
 : -48.0 | -42.8 | 94.0 | 90.0
N#Cc1c(N)n(Cc2ccccc2)c2nc3ccccc3nc12
 : -55.8 | nt | 100.0 | 104.0
CC1CC(C)(C)OC(C[N+]2(C)CCCCC2)O1 (configuration not stated)
 : 14.1 | 6.0 | 101.0 | 99.0
N=C1S/C(=C/c2ccccc2)C(=O)N1c1nonc1N
 : nt | -23.8 | 100.0 | 106.0
CC(=O)OCOCC(=O)OCO[P+](=O)C(OCOC(C)=O)c1cc([N+](=O)[O-])ccc1Oc1ccc(Br)cc1 (configuration not stated)
 : 7.4 | nt | 100.0 | 101.0
O=C(C1c2ccccc2Oc2ccccc21)N1CCCc2ccccc21
 : nt | 3.4 | 108.0 | 117.0
O=C(CCn1cnc2onc(-c3ccc(F)cc3)c2c1=O)Nc1cccc(Cl)c1
 : 16.9 | -18.9 | 102.0 | 102.0
CC1(Cc2nc3ccccc3[nH]2)OCCO1
 : -6.7 | nt | 102.0 | 102.0
CCC(=O)N(Cc1cc2ccccc2[nH]c1=O)C(C)C
 : 87.9 | -22.4 | 103.0 | 103.0
C=CCNCc1cc2cc(C)cc(C)c2[nH]c1=O
 : 3.2 | -29.6 | 102.0 | 99.0
Cn1c(=O)[nH]c(=O)c2c1nc1n2CCCC1c1ccccc1 (configuration not stated)
 : nt | -8.5 | 103.0 | 106.0
CC(C)[C@H](NC(=O)Cc1ccccc1)C(=O)OCn1nnc2ccccc2c1=O
 : 14.1 | -21.8 | 100.0 | 108.0
O=C(Nc1cc2cc(Br)ccc2oc1=O)C1CCCCC1
 : -2.4 | nt | 101.0 | 103.0
Cc1nn(CCC#N)c(NC(=O)c2ccc(Cl)cc2)c1P(=O)(Nc1ccc(F)cc1)N1CCOCC1 (configuration not stated)
 : -1.6 | 9.3 | 99.0 | 97.0
COC(=O)c1ccsc1NC(=O)C1=COCCO1
 : -24.9 | 2.5 | 103.0 | 107.0
COc1cccc(NC(=O)CN(C)C(=O)Cc2ccccc2F)c1
 : 5.1 | -7.7 | 101.0 | 105.0
COc1cc2c(cc1OC)CN(CC1=CCC3CC1C3(C)C)CC2 (configuration not stated)
 : -4.6 | -0.6 | 99.0 | 103.0
Nc1cccc2c1C(=O)N(C(=O)c1ccc(S(=O)(=O)N3CCCCCC3)cc1)C2=O
 : -12.1 | -29.0 | 102.0 | 110.0
CCc1n[nH]c(=O)n1Cn1c(CC)n[nH]c1=O
 : -14.8 | -6.1 | 102.0 | 105.0
O=C(NCCN1CCOCC1)c1ccc(-n2ccc3ccccc32)s1
 : -334.2 | 7.4 | 98.0 | 100.0
O=C(NCc1ccco1)c1ccccc1NCCOc1ccc(Cl)cc1
 : 102.2 | -32.5 | 102.0 | 111.0
Cc1nn(Cc2ccccc2)c(Cl)c1/C=N/n1c(C)nc2ccccc2c1=O
 : -3.3 | -0.4 | 103.0 | 106.0
CC(=O)NC1C(=O)N(Cc2ccccc2)c2ccccc21 (configuration not stated)
 : nt | -20.7 | 101.0 | 103.0
Cc1ccc(S(=O)(=O)NC(=O)Nc2[nH]n(-c3ccccc3)c(=O)c2C2=NCCCCC2)cc1
 : 32.5 | -13.6 | 100.0 | 98.0
O=C(O)C(O)Cc1c[nH]c2ccccc12 (configuration not stated)
 : nt | 4.2 | 99.0 | 105.0
CC1(C)CC(NC(=O)/C=C/C(=O)NC2CC(C)(C)NC(C)(C)C2)CC(C)(C)N1
 : 3.2 | -16.6 | 101.0 | 97.0
Cc1cc(CN2CCN(Cc3ccccc3)CC2)cs1
 : -3.9 | -10.1 | 102.0 | 104.0
COC(=O)c1ccc(CC(C#N)(c2ccccc2)c2ccccc2)o1
 : -11.0 | -41.4 | 105.0 | 106.0
c1cc(CNc2ccc3c(c2)OCCO3)ccn1
 : -1.1 | -147.5 | 101.0 | 101.0
C=CCNC(=O)c1cc(-c2ccccc2O)on1
 : -27.7 | -1.4 | 101.0 | 103.0
Cc1cccc(N(CC(N)=O)S(C)(=O)=O)c1C
 : -4.3 | -12.0 | 103.0 | 103.0
COc1ccc(-c2cc(C(=O)NCCc3ccccc3)nc3n[nH]c(-c4ccccc4)c23)cc1OC
 : -31.6 | -29.9 | 102.0 | 103.0
CCOc1nc(NCCc2ccc(OC)c(OC)c2)nc(N2CCN(c3ccc(OC)cc3)CC2)n1
 : -14.9 | -12.5 | 101.0 | 103.0
O=C(CSc1nnc(-c2ccc(Cl)cc2Cl)n1Cc1ccco1)c1ccc[nH]1
 : 18.3 | 44.4* | 110.0 | 113.0

3 of the compounds above, as labelled records.
O=C(NCc1ccco1)c1ccccc1NCCOc1ccc(Cl)cc1
  Mtb MbtI inh: 102.2
  Mtb MenB inh: -32.5
  Polio RdRp inh: 102.0
  Polio RdRp inh intensity: 111.0

Cc1nn(Cc2ccccc2)c(Cl)c1/C=N/n1c(C)nc2ccccc2c1=O
  Mtb MbtI inh: -3.3
  Mtb MenB inh: -0.4
  Polio RdRp inh: 103.0
  Polio RdRp inh intensity: 106.0

CC(=O)NC1C(=O)N(Cc2ccccc2)c2ccccc21 (configuration not stated)
  Mtb MbtI inh: nt
  Mtb MenB inh: -20.7
  Polio RdRp inh: 101.0
  Polio RdRp inh intensity: 103.0

Further compounds
Every second line gives: Mtb MbtI inh | Mtb MenB inh | Polio RdRp inh | Polio RdRp inh intensity
CCN(CC)C(=O)C1CCN(S(C)(=O)=O)CC1
 : -1.5 | 35.0 | 102.0 | 100.0
Cc1ccc(Cl)cc1N1CCN(C(=O)c2ccccc2N(Cc2ccccc2)S(C)(=O)=O)CC1
 : -5.2 | -23.3 | 103.0 | 110.0
N#Cc1c(-c2ccco2)cc(-c2cccc(S(=O)(=O)N3CCCCC3)c2)n2c1nc1ccccc12
 : -3.1 | -68.3 | 45.0 | 239.0
COc1ccc(CCC(=O)Nc2cc(Cl)ccc2Sc2nncn2C)cc1
 : 13.6 | -43.5 | nt | nt
O=C(c1nsc2ccccc12)N1CCCCC1
 : 1.2 | 3.7 | 103.0 | 99.0
COc1ccc(C2=NN(CC(=O)NCc3ccc(C)cc3)C(=O)CC2)cc1
 : 7.9 | 11.3 | 102.0 | 104.0
CC(NC(=O)CSc1n[nH]c(N)n1)C1CC2CCC1C2 (configuration not stated)
 : -3.1 | 9.8 | 104.0 | 101.0
NC(=O)Cn1cnc2ccccc21
 : -7.7 | 5.4 | 103.0 | 103.0
C=CCn1c(C)cc(C(=O)COC(=O)C2CC(=O)N(Cc3ccccc3)C2)c1C (configuration not stated)
 : -2.8 | -15.5 | 105.0 | 106.0
O=C(Cn1nnc(-c2ccccc2Br)n1)N(Cc1ccccc1)C1CCS(=O)(=O)C1 (configuration not stated)
 : 2.1 | 1.4 | 105.0 | 105.0
CC(=O)N1CCc2cc(N=NC3=C(O)CCCC3=O)ccc21
 : 58.6 | -121.6 | 101.0 | 84.0
C=CCn1cc(C(=O)NCCN2CCCCCC2)c(=O)c2cc(S(=O)(=O)N(CC)CC)ccc21
 : -0.8 | -1.3 | 100.0 | 103.0
Cc1cc(=O)n(CC(C)O)c(O)c1C#N (configuration not stated)
 : nt | -11.3 | 101.0 | 108.0
O=C(Nc1ccc(Br)cc1)c1cnc2ccccn2c1=O
 : 41.8 | -23.1 | 102.0 | 95.0
O=C1CN(CC(=O)NC(=O)NCc2ccccc2)CCN1
 : -8.4 | -13.3 | 100.0 | 109.0
C=CCN1C=C/C(=C\C=C(C#N)C#N)c2ccccc21
 : -27.1 | -36.2 | 103.0 | 103.0
Cc1ccc(N(C(=O)c2ccccn2)C2(C(=O)Nc3c(C)cccc3C)CCCCC2)cc1
 : nt | -20.0 | 107.0 | 105.0
Cc1c(C)c(O)c(Cc2nc3ccccc3[nH]2)c(C)c1O
 : 25.2 | -11.2 | 105.0 | 102.0
c1ccc(-c2oc3ncn4ncnc4c3c2-c2ccccc2)cc1
 : -63.1 | -9.4 | 102.0 | 100.0
Cc1cc(C(=O)Nc2ccc(Cl)cc2)no1
 : 3.0 | -8.8 | 104.0 | 105.0
COc1ccc(C(C)C)cc1S(=O)(=O)N1CCCCC1C (configuration not stated)
 : -3.3 | -24.5 | 98.0 | 101.0
Cc1cccc(C)c1NC(=O)CNC(=O)C(C)Oc1ccccc1C#N (configuration not stated)
 : 8.2 | -33.2 | 96.0 | 88.0
C#CCSc1nc(-c2cccs2)cc(C(F)(F)F)c1C#N
 : 106.6 | 2.4 | 102.0 | 103.0
CCC(C(=O)N1CCCCC1C)c1ccccc1 (configuration not stated)
 : -7.1 | -19.9 | 98.0 | 103.0
CCN1C(=O)/C(=C2\SC(=O)N(Cc3ccccc3)C2=O)c2ccccc21
 : 0.0 | 2.1 | 101.0 | 100.0
O=C1C(=O)N(CCCN2CCOCC2)C(c2cccs2)/C1=C(\O)c1ccccc1 (configuration not stated)
 : -8.4 | -3.2 | 103.0 | 108.0
CN(Cc1ccccc1)C(=S)Nc1ccc2nc3n(c(=O)c2c1)CCCCC3
 : -7.8 | 2.4 | 102.0 | 100.0
CCOC(=O)Cn1nc(-c2ccc(Cl)cc2)ccc1=O
 : 12.9 | 12.8 | 99.0 | 100.0
CC(N)c1nc2ccccc2[nH]1 (configuration not stated)
 : -7.2 | nt | 103.0 | 103.0
Cc1sc2ncnc(OCC(=O)N3CC(C)CC(C)C3)c2c1C (configuration not stated)
 : -4.9 | -39.2 | 106.0 | 107.0
COc1ccccc1Cc1nnc(C(=O)NCCc2ccccc2)o1
 : -7.9 | -8.0 | 104.0 | 109.0
COC(=O)c1c(N=CN(C)C)c(C#N)c2n1CCCC2
 : -4.2 | -24.8 | 101.0 | 100.0
